Screening results deposited in PubChem BioAssay by National Center for Advancing Translational Sciences (NCATS).
GLA inh pH 4.5 = inhibitors of human alpha-galactosidase A at pH 4.5 | activity change, negative = inhibition, % at 105 µM | 230,000 tested, under 10 active | AID 1467 | purified enzyme, 4-MU-alpha-Gal fluorescence, pH 4.5; inconclusive = small, poorly fitted or top-dose-only inhibition, or a rising curve; inactive = flat fitted curve, though single readings scatter; no compound was filed as active;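 further: 0% = full activity with enzyme and -100% = basal without enzyme; dose as in the result columns while the protocol names 77 µM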
Rango complex inh = inhibitors of Rango-importin beta complex formation | Q14974 | Rango CFP/YFP FRET sensor + importin beta, 45 min | Potency, µM (titrated, usually from 92.2 µM), for the others: at the top dose inhibition of complex formation | 340,000 tested, 0.031% active; active = rising FRET ratio curve, often small or poorly fitted; inconclusive = mostly compound fluorescence or quenching in the first reads; inactive = flat curves in all reads;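 further: potency means the concentration at half of the fitted maximal effect; 0% = DMSO wells and 100% = buffer wells lacking importin beta; nearly all actives have a fitted effect of over 15% in size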
Target sequence (Q14974 whole entry, looked up): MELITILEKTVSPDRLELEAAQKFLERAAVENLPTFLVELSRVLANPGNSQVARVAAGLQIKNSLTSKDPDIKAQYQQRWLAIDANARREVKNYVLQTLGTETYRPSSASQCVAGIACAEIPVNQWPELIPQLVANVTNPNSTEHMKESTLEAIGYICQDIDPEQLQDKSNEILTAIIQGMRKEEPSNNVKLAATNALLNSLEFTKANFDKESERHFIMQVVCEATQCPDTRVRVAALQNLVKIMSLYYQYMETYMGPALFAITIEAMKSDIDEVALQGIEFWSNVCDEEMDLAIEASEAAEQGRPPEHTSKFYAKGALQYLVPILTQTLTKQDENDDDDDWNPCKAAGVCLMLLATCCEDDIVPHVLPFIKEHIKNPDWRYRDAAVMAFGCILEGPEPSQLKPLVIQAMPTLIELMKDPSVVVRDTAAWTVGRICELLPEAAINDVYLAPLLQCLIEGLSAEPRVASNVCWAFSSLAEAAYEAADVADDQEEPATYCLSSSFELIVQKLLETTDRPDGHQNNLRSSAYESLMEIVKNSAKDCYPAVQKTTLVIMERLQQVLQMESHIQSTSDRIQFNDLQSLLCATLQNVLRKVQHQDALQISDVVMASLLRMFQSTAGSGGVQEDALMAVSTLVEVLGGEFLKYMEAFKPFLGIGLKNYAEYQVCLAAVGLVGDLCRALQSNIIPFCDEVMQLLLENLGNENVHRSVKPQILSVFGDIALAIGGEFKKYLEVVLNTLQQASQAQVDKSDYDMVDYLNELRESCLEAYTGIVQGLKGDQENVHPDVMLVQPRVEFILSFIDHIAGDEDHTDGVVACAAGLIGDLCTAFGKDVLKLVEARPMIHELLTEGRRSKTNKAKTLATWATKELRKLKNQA
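Inhibition scored from the CFP 486 nm/YFP 530 nm FRET ratio 45 min after adding 0.125 microM importin beta to 50 nM Rango biosensor preincubated 5 min with compound (room temperature, PBS with DTT, Tween-20, BSA). No-importin wells as positive control.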
Rango release inh = prevents RanGTP from dissociating the Rango-importin beta complex; 340,000 tested, 0.071% active; Biochemical FRET Rango-importin beta, RanGTP-induced dissociation; O95149+P62826; Potency, µM (highest dose often 46.1 µM), for inactives: at the highest dose activity change, negative = inhibition; active means falling FRET ratio curve, often poorly fitted, with flat reads before Ran was added; inconclusive means other falling curves, or compound fluorescence or quenching; inactive means flat or rising ratio curve;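 further: potency means the concentration at half of the fitted maximal effect; % of control where 0% means no effect; nearly all actives have a fitted effect of over 45% in size; -100% = wells without RanGTP and RCC1; the record marks most hits as doubtful in a second field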
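FRET read at 45 min, room temperature: inhibitors block the CFP/YFP signal rise when RanGTP (0.6 uM Ran, 2 mM GTP, 0.2 uM RCC1) frees Rango (0.1 uM) from importin beta (0.25 uM). Pre-read after 5 min compound exposure flags interference.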
miR-21 reporter = raises the signal of a miR-21 reporter; HeLa miR-21 FLuc reporter, luciferase, 48 h; Potency, µM (doses to about 38.3 µM), inactives show top-dose reporter change, positive = more light; 340,000 tested, under 10 active; AID 2288; active = well fitted rising curve with a large enough effect; inconclusive = small, poorly fitted or top-dose-only effect; inactive = no such curve, though single readings can be large or run the other way;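 further: % of control where 0% means no effect; miR-21 action dims this reporter so a rising signal means less miR-21 action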
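HeLa miR-21-FLuc reporter line, endogenous miR-21; 2000 cells/well in DMEM/10% FBS; compound titration up to ~40uM final, 48 h, 37 degree Celsius; luciferase detection reagent, 15 min lysis, CCD luminescence.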
Active calls of the source: *; ? = inconclusive; . = not tested or not shown; & = joins results of further samples.

SMILES	GLA inh pH 4.5	Rango complex inh	Rango release inh	miR-21 reporter
CN(C)c1ccc(/C=N/NC(=O)c2nnn(-c3nonc3N)c2COc2ccc(F)cc2)cc1	-4	?	-19%	4%
CN1CCc2c(sc3c2C(=O)NC(/C=C/c2ccco2)N3)C1 (centres undefined)	.	?	?	.
Cc1nn(-c2ccccc2)c(OC(=O)c2cccs2)c1S(=O)(=O)c1ccc([N+](=O)[O-])cc1	16	-1.1%	16%	-4%
CCCN1CCN(CCCNC(=O)Cn2nc(-c3ccc(Cl)cc3)ccc2=O)CC1	2	0.2%	-6%	-9%
O=C(CNC(=O)C1CCCCC1)Nc1ccccc1Cl	5	-4.3%	9%	-7%
Cc1ccn2cc(-c3cccc(NS(C)(=O)=O)c3)nc2c1	8	0.8%	2%	-37%
COCc1c(Br)c(C)[nH]c(=O)c1C#N	4	1.8%	-18%	-7%
O=C(CSc1nnc(Cc2cccs2)n1-c1ccccc1)NC1CCCCC1	1	-1.9%	-21%	0%
N/C(=N\OC(=O)c1ccc(Br)o1)c1cccnc1	-2	2.4%	0%	-46%
O=C1/C(=C/c2cccs2)CCc2ccccc21	5	2.4%	-22%	-44%
C/C(=N/NC(=O)c1ccco1)c1cccnc1	-1	0.6%	-5%	-40%
CSc1nc2ccc(NC(=O)c3nn(C(C)C)c(=O)c4ccccc34)cc2s1	0	1.2%	1%	-36%
CCCCN(C)C(=O)CCC(=O)NNc1nc2ccccc2c2nc(C)nn12	3	4.0%	29%	-3%&-12%
O=C(CSc1nc2ccccc2o1)NCc1ccc2c(c1)OCO2	4	-0.3%	17%	-42%
NC(=O)C1CCCN(C(=O)c2ccc3c(c2)NC(=O)CS3)C1 (centres undefined)	.	-1.2%	28%	.
Cc1cc(C(=O)COC(=O)CCC(=O)c2ccc3c(c2)OCCO3)c(C)n1Cc1ccco1	-2	?	1%	-6%
CCOC(=O)c1cnc(-n2nc(C)cc2C)nc1Oc1ccccc1F	-7	1.2%	7%	-9%
CCCOc1ccc(C(=O)NCCC(=O)NCCCC(=O)OCC)cc1	-2	0.8%	9%	2%
CNC(=O)/C(C#N)=C/c1c(N2CCN(c3ccc(OC)cc3)CC2)nc2c(C)cccn2c1=O	.	?	?	-3%
COc1cccc(SCc2noc(C(=O)NCCC(C)C)c2C(=O)NCCC(C)C)c1	.	3.7%	-10%	.
O=[N+]([O-])c1ccc2c(c1)nc(CO)n2Cc1ccccc1	.	0.1%	10%	0%
CCCNc1c(NS(=O)(=O)c2ccc3c(c2)CCCC3)c(=O)oc2ccccc12	.	?	-2%	2%
Nc1cc(Cl)cc2c1-c1ccc(Cl)cc1C2O (centres undefined)	.	4.6%	28%	.
COc1ccc(CN2CCC(N3CCC(C(=O)N4CCOCC4)CC3)CC2)c(F)c1	-10	-1.4%	1%	-1%
O=C(Nc1ccc(F)cc1F)c1ccc2nc(N3CCOCC3)sc2c1	.	-1.6%	13%	-19%
Continuation.
SMILES	GLA inh pH 4.5	Rango complex inh	Rango release inh	miR-21 reporter
Cc1cc(C)nc(SCC(=O)N2CCc3ccccc32)n1	.	-0.3%	19%	.
CCC(C)[C@H](N)c1nnc(SCC(=O)Nc2ccc(C)cc2C)o1 (some centres undefined)	.	-4.6%	-7%	0%
Cc1ncoc1C(=O)N1CCCC(CCC(=O)NCc2ccc(F)c(F)c2)C1 (centres undefined)	2	-3.6%	10%	-12%
O=S(=O)(Nc1ccccc1)c1ccc2c(c1)CCO2	0	0.9%	-9%	1%
Cc1ccc(CSc2nnc(-c3ccncc3)n2CC2CCCO2)cc1 (centres undefined)	-8	3.1%	1%	-5%
CN1CCN(C(=O)/C(=C/c2ccccc2)c2ccccc2)CC1	-1	-0.3%	4%	-4%
COc1ccc(NC(=O)CSc2ncnc3[nH]ncc23)cc1	-1	0.2%	-3%	11%
S=C(N/N=C/c1ccc(Br)cc1)N1CCCCC1	.	-1.2%	-15%	-53%
c1csc(-c2noc(COc3ccc4c(c3)CCCC4)n2)c1	-1	-1.9%	-24%	-51%
Cc1ccc2oc(=O)c3cnn(CC(=O)NC4CCCCC4C)c3c2c1 (centres undefined)	-2	-0.4%	2%	3%
NC(=O)c1cc(C(=O)c2cccc(Cl)c2Cl)c[nH]1	0	?	5%	-7%
CCCC(=O)N(c1ccc2oc(=O)sc2c1)S(=O)(=O)c1cccs1	2	2.1%	6%	-1%
COc1ccc(Nc2nccc(-c3cccc(N)c3)n2)cc1	.	2.1%	-1%	0%
NC(=O)Cn1c(=O)oc2ccccc21	3	-1.8%	-6%	-9%
Cc1ccccc1NC(=O)C(Cc1ccccc1)n1cccc1 (centres undefined)	-3	-1.3%	8%	-3%
Cc1occc1C(=O)NNC(=O)c1ccc(Br)o1	3	8.1%	-9%	4%
CCOC(=O)CN1C(c2ccc(O)cc2)Nc2ccc(Br)cc2C1c1ccccc1 (centres undefined)	5	0.2%	8%	9%
CCCC(C)NC(=S)NC(=O)c1cc(S(=O)(=O)N2CCOCC2)ccc1C (centres undefined)	-10	-2.8%	18%	17%
O=C(CCCNS(=O)(=O)c1cccs1)N1CCN(c2cccc(Cl)c2)CC1	-6	2.3%	-24%	16%
N#Cc1ccc(NC(=S)NC(=O)CCc2ccc(S(=O)(=O)N3CCOCC3)cc2)cc1	-4	0.0%	-13%	-3%
Cc1c(NC(=O)NCCN2C(=O)C3C4C=CC(C4)C3C2=O)c(=O)n(-c2ccccc2)n1C (centres undefined)	2	-2.9%	0%	-2%
O=[N+]([O-])c1ccc(Nc2nc(NCCO)nc(N3CCCC3)n2)cc1	-9	0.7%	25%	-9%
O=C(OCN1C(=O)c2ccccc2C1=O)c1ccco1	3	0.0%	-10%	-3%
CS(=O)(=O)Nc1ccc2c(c1)OCC(=O)N2Cc1ccccc1	.	4.0%	21%	1%
CN(C)CCN(C(=O)c1ccc(N2C(=O)CCC2=O)cc1)c1nc2cc3c(cc2s1)OCCO3	7	.	.	-28%
Other records follow:
SMILES	GLA inh pH 4.5	Rango complex inh	Rango release inh	miR-21 reporter
COC(=O)CC1SC(=O)NC1=Nc1ccccc1 (centres undefined)	0	4.8%	1%	-1%
NC(=O)c1oc2ccccc2c1NC(=O)CN1CCCCC1	-7	0.3%	13%	1%
O=C(c1ccncc1)N(Cc1ccccc1)Cc1nc2ccccc2c(=O)[nH]1	-1	0.3%	-1%	2%
Cc1cccn2c(=O)c3cc(C(=O)N4COCC4(C)C)n(C)c3nc12	-2	0.9%	-2%	-8%
COc1cccc(-c2onc3ccc(C(C)=O)cc23)c1	.	?	-25%	-23%
COc1ccc(-c2csc3ncnc(N4CCN(S(=O)(=O)c5cccs5)CC4)c23)cc1	.	-0.5%	10%	.
C=CCOc1ccc(/C=C/C(=O)OCC(=O)N2CCCc3ccccc32)cc1	.	?	14%	.
COC(=O)Nc1nn(Cc2ccccc2F)cc1Br	2	-2.9%	-8%	-9%
NC(=O)C1CCN(C(=O)CCc2nc3ccccc3c(=O)[nH]2)CC1	3	2.4%	10%	-2%
CC(C)C(=O)N1CC(=O)Nc2ccc(F)cc2C1c1ccc(F)cc1 (centres undefined)	.	-1.0%	-4%	-2%
O=C(CCNC(=O)c1ccco1)Nc1ccc(C(F)(F)F)cc1	.	-7.2%	0%	0%
CCCCCCC(=O)N1C/C=C\C(c2ccc(OC)cc2)N(Cc2ccc(F)cc2)C(=O)[C@H]1Cc1ccccc1 (some centres undefined)	-9	0.6%	2%	12%
COc1ccc2oc3cc(C)[n+]([O-])c(-c4ccc(Br)cc4)c3c2c1	0	3.0%	5%	1%
Cc1cc2cc(C)c(NCCNC(=O)c3cccc(F)c3)nc2cc1C	-8	0.3%	1%	-3%
Cc1ncnc(N)c1CCCNc1ccccc1	.	1.3%	-2%	.
CCOc1ccc(NC(=O)CN(C)C(=O)C2CSC3(C)CCC(=O)N23)cc1OCC (centres undefined)	.	-1.3%	-14%	.
Cc1cc(C)c(NC(=O)CNC(=O)CSc2nnc(N)s2)c(C)c1	.	-0.6%	27%	.
O=C(C[C@H]1C/C=C\C[C@H](Cc2ccc(F)cc2)C(=O)OCCNC1=O)NCCO	.	8.4%	-3%	.
Cc1ccc2nc(SCC(=O)O)nc(C)c2c1	-1	?	3%	-2%
CSc1oc(-c2ccco2)nc1S(=O)(=O)c1ccccc1	10	-2.8%	-4%	2%
CC1(C)CC(=O)N(CC(=O)O)c2ccccc2S1(=O)=O	-3	0.8%	-11%	-15%
O=C(CCC(=O)N1CCN(S(=O)(=O)c2ccc3ccccc3c2)CC1)NCC(F)(F)F	.	0.3%	2%	-1%
O=C(CCNC(=O)c1ccc(Br)o1)NCc1ccccn1	.	-2.7%	-25%	-2%
O=C(CSc1nc2ccccc2c(=O)n1CC1CCCO1)NCCc1ccccc1 (centres undefined)	.	4.4%	11%	0%
O=C(CNC(=O)c1ccc(Cl)cc1Cl)OCC(=O)N1CCCC1	.	-1.9%	-12%	.
(further entries)
SMILES	GLA inh pH 4.5	Rango complex inh	Rango release inh	miR-21 reporter
O=C(CNC(=S)N(Cc1ccccc1)Cc1cccnc1)NC1CC1	9	2.1%	-3%	-10%
CNC(=S)N(Cc1ccc2c(c1)OCO2)C1CC(=O)N(c2ccc(F)cc2)C1=O (centres undefined)	2	5.4%	3%	13%
O=C(O)C(Cc1cccs1)c1cccs1 (centres undefined)	.	-0.5%	-11%	.
O=C(c1cc(-c2ccccc2)nc2ccccc12)N1CCOCC1	-1	-4.5%	-3%	-6%
O=C(Nc1ccccc1C(=O)NC1CCCC1)NC1CCCC1	-4	-2.2%	-12%	-5%
Fc1cccc(Cl)c1/C=C/c1cnc2ccccc2n1	.	-1.4%	-6%	-55%
O=S(=O)(Cc1ccccc1)N1CCN(c2ncccn2)CC1	.	0.1%	-1%	-7%
CCOC(=O)c1cc(-c2ccc3c(c2)OCO3)nc2onc(C)c12	-19	?	-20%	-3%
CCN(CC(=O)Nc1ccc(NC(C)=O)cc1)C(=O)c1ccc(C(=O)c2ccccc2)cc1	.	-0.2%	0%	.
C#CCOCCOCCOCCNc1nc(N2CCN(C(=O)[C@H](CCCCN)n3cc(CCCC)nn3)CC2)nc(N2CCN(C(=O)[C@H](CCCCN)n3cc(CCC(=O)O)nn3)CC2)n1	.	-0.1%	10%	.
CNc1ccccc1C(=O)OCC(=O)N1CCN(c2ccc(OC)cc2)CC1	.	2.9%	-1%	-6%
CCOC(=O)N1CCN(CC(O)COCc2cc(OC)c(OC)c(OC)c2)CC1 (centres undefined)	-1	-1.6%	-2%	5%
Cc1cc(C)n(-c2nc(NCCCN(C)C)c3c4c(sc3n2)CCCC4)n1	-5	-2.6%	21%	?
COc1ccc(N/C=C\C(=O)c2ccc3c(c2)OCO3)cc1	-2	?	?	-47%
COc1ccc(/C(C)=N/Nc2nncc3ccccc23)cc1	.	-0.7%	-5%	-70%
COc1ccc(CNC(=O)c2cnc3scc(C)n3c2=O)cc1	5	-0.4%	-8%	-17%
O=C1NC(=Nc2ccccc2)S/C1=C\C=C\c1ccco1	-5	?	?	-7%
COc1cccc(C2c3[nH]c4ccccc4c3C[C@H]3C(=O)N(CCCCCO)CC(=O)N23)c1 (some centres undefined)	.	-4.6%	-3%	-1%
CCOC(=O)c1c(C)n(CCNC(C)=O)c2ccc(O)cc12	0	-1.3%	5%	0%
CCCn1nc(NS(=O)(=O)c2cccc3nonc23)c2cc3ccccc3nc21	.	-0.4%	-4%	-1%
O=C(CCc1n[nH]c(=O)[nH]c1=O)N1CCCCC1	-3	2.8%	13%	0%
COC(CNC(=O)c1ccc2c(c1)ncn2-c1ccc(C)cc1C)OC	.	9.9%	2%	-15%

Random excerpt: three records from the list.
SMILES	GLA inh pH 4.5	Rango complex inh	Rango release inh	miR-21 reporter
C#CCOCCOCCOCCNc1nc(N2CCN(C(=O)[C@H](CCCCN)n3cc(CCCC)nn3)CC2)nc(N2CCN(C(=O)[C@H](CCCCN)n3cc(CCC(=O)O)nn3)CC2)n1	.	-0.1%	10%	.
O=C(CCc1n[nH]c(=O)[nH]c1=O)N1CCCCC1	-3	2.8%	13%	0%
O=C(CNC(=S)N(Cc1ccccc1)Cc1cccnc1)NC1CC1	9	2.1%	-3%	-10%

These rows are one share of the data; rates above refer to the full screens.
